# Screening results from PubChem.
# HIV TAR-Tat: HIV-1 TAR-Tat binding disruption; z-score (test concentration not listed); HIV-1 TAR RNA, Tat peptide displacement FRET; stronger effect = higher value; 100,000 tested, 0.6% active;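 also: score is relative to mean and SD of negative controls; some compounds called inactive have numbers as strong as hits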
# CDC25B CDK2 inh: human CDC25B-CDK2/CyclinA binding inhibition. z-score (test concentration not listed). HTRF CDC25B-CDK2/CyclinA binding, anti-His/anti-Flag; stronger effect = higher value. P30305+P24941. AID 1259370. 94,000 tested, 0.72% active;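 also: score is relative to mean and SD of negative controls; strong numbers were not always called active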
# * marks the source's active call; other numbers are inactive results; nt = no result given.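 The calls were made as follows: active = z-score from 3 up in half or more of its runs; inactive = the rest.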 Hits appear at their usual frequency; any-hit rate near 0.9%.
SMILES	HIV TAR-Tat	CDC25B CDK2 inh
COc1cccc(CNc2nc(-c3cccc(OC)c3OC)no2)c1	0.46	nt
C=CCn1c(O)c(C2=Nc3ccccc3SC(c3ccccc3)C2)c(=O)[nH]c1=O (configuration not stated)	2.8	0.83
O=C1OCc2ccc(NC(=O)c3nccnc3C(=O)O)cc21	nt	0.51
O/N=C/c1ccc(OC(F)(F)F)cc1	nt	-1.9
CC(C)(C)c1cn2c3ccccc3nc2n1CCO	0.26	0.59
COC(=O)c1ccc(CSc2ncc(CO)n2Cc2ccc(Cl)cc2)cc1	1.7	nt
NS(=O)(=O)c1ccc(CCn2c(-c3ccccc3)nc(=S)c3c2CCCC3)cc1	1.1	-1.6
O=C(Nc1nc(-c2nc3ccccc3s2)cs1)c1cccc(Cl)c1	1.4	nt
CCOc1ccc(C(c2c[nH]c3ccccc23)c2c[nH]c3ccccc23)cc1	-4.9	1.2
CCC(Oc1ccccc1)C(=O)Nc1nc2c(s1)C(=O)CC(C)(C)C2 (configuration not stated)	0.54	-0.28
O=C(Nc1ncc(Cc2cccc(C(F)(F)F)c2)s1)C(c1ccccc1)c1ccccc1	nt	-1.9
Fc1ccc(N=C/C=C/C=C/Nc2ccc(F)cc2)cc1	nt	-1.2
COc1cc(OC)c(NC(=O)Cn2cc3c(n2)CCCCC3)cc1Cl	0.41	1.4
O=c1c2c(-c3ccc(Cl)cc3)csc2ncn1Cc1ccccc1	0.27	-0.36
CCc1ccc(C2CC(=O)NC(SCC(=O)OC(C)C)=C2C#N)cc1 (configuration not stated)	1.9	-2.3
O=C(c1cc(-c2ccco2)[nH]n1)N1CCN(C(=O)c2ccco2)CC1	-6.3	nt
CC(=O)Nc1ccc(N2C(=O)CC(Sc3nccc(C)n3)C2=O)cc1 (configuration not stated)	1.7	-0.41
CCCc1nn2c(=O)cc(CSCC(=O)Nc3ccc(F)cc3)nc2s1	0.39	nt
CN(C)S(=O)(=O)N(CC(=O)N1CCc2ccccc2C1)c1ccccc1	11*	-1.7
CCOC(=O)N1CCN(C(=O)c2cc(C)no2)CC1	1.4	-1.1
COc1cccc(-c2noc(N3CCC(N4CCCCC4)CC3)n2)c1OC	0.74	nt
CCCCOC(=O)C1=C(C)NC2=C(C(=O)CC(C)(C)C2)C1c1ccccn1 (configuration not stated)	0.82	-0.79
CCn1c(SCc2nc(-c3ccccc3C)no2)nnc1-c1ccncc1	2	-0.42
CCCCOC(=O)Nc1nc(C)c(C(=O)OCC)s1	-0.23	1.7
COc1ccc(C(=O)CSc2nc(C)cc(C)n2)cc1C	-0.84	-0.83
CC(=O)Nc1nonc1-c1nnc(SCC(=O)N2CCCCC2)n1C	1.8	-1.8
O=c1[nH]c(SCc2c(F)cccc2Cl)nc2c1CCCC2	2.1	0
C=CCNC(=O)Cc1sc(C)nc1-c1cccs1	-0.76	-0.04
COc1ccccc1/C=C/c1nn2c(-c3ccccc3OC)nnc2s1	2.4	-2.2
O=c1c(NCCc2ccccc2)c(-c2ccc(Cl)cc2)c1=O	1.4	nt
Cc1c(C(=O)N2CCCC2)oc2c1-c1nn(CC(=O)NC3CCCCC3C)cc1CC2 (configuration not stated)	-0.14	nt
COc1cc(OC)c(NC(=O)C(Sc2ccccc2N)c2ccccc2)cc1Cl (configuration not stated)	nt	-0.76
CCOC(=O)c1c(N)sc2c1-c1ccccc1C2	nt	-1.5
COc1cccc(OC)c1C(=O)NNC(=O)c1cccnc1	nt	-1.2
CC(CCc1ccccc1)NC(=O)CSC1=NS(=O)(=O)c2ccccc2N1 (configuration not stated)	1.9	nt
CCOC(=O)c1[nH]c(C)c(CN(CC2CCCO2)C(=O)CC)c1C (configuration not stated)	0.88	nt
CC(C)c1ccc2c(c1)c(SC(C)(C)C)c(CC(C)(C)C(=O)O)n2Cc1ccc(Cl)cc1	0.48	-0.3
O=C(O)CCN1C(=O)C(=O)/C(=C(/O)c2ccc(Cl)cc2)C1c1ccc2c(c1)OCO2 (configuration not stated)	nt	-2.3
COC(OC)c1ccc(C#N)c(SCc2ccccc2)n1	nt	0.57
O=C1CCCN2N=C(SCC(=O)NCc3ccc(F)cc3)SC2=N1	nt	0.35
COc1cccc(C(=O)CC2(O)C(=O)N(C(C)C)c3ccccc32)c1 (configuration not stated)	0.35	-0.57
O=C(Nc1ccc2c(c1)OCO2)C1CCN(c2ncnc3c2nc2n3CCCCC2)CC1	0.08	nt
O=C(Nc1ccc(F)cc1)c1cccnc1Oc1ccccc1	nt	-0.78
Cc1ccc(OCC(=O)O)cc1	nt	-0.16
O=C1CC(c2ccccc2Cl)Cc2c1cnn2-c1nc2ccccc2[nH]1 (configuration not stated)	-0.1	-0.26
CCN(CC)C(=O)Cn1c2ccccc2c2cn[nH]c(=O)c21	nt	-2.4
CCN(CC)CCNc1ncnc2c1cnn2-c1cc(Cl)ccc1C	0.79	nt
COc1ccc(/C=C/c2nn3c(-c4ccc(F)cc4)nnc3s2)cc1	3	-2
CN1CCN(CCCNc2ncnc3onc(-c4cccc(Cl)c4)c23)CC1	0.49	nt
CN1C(C(=O)NC(C)(C)CO)=CC(c2ccco2)=NS1(=O)=O	1.9	-2.6

# (continued)
SMILES	HIV TAR-Tat	CDC25B CDK2 inh
COc1cccc(OCc2cc(=O)n3cc(C)sc3n2)c1	3.3	-1.6
O=C(CSc1ncc(-c2ccc(Cl)cc2)o1)c1ccc(Cl)cc1	nt	-1.3
Fc1ccc(-c2csc3ncnc(NCc4ccc5c(c4)OCO5)c23)cc1	0.87	nt
CCc1onc(C)c1C1CCCN1C(=O)c1cnn2c(C(F)(F)F)cc(-c3ccccc3)nc12 (configuration not stated)	0.91	nt
Cc1cc(NC(=O)CC2NCCN(Cc3ccccc3)C2=O)no1 (configuration not stated)	nt	-1.6
O=c1[nH]nc(SCc2ccc(Br)cc2)c(=O)[nH]1	nt	0.9
Cc1ccsc1CN(Cc1ccco1)C(=O)c1ccc(Br)cc1	0.46	0.56
O=C(NCc1ccccc1)N1CCCC1c1cccs1 (configuration not stated)	0.72	-2.4
O=C(CSc1nc(=O)n(CCN2CCOCC2)c2c1CCC2)Nc1ccc2c(c1)OCCO2	2.2	nt
CN1CCOc2ccc(S(=O)(=O)NCc3ccc4c(c3)OCO4)cc21	0.97	nt

# Reformatted with values under each structure: part of the list above
# Each structure is followed by: HIV TAR-Tat | CDC25B CDK2 inh
O=C(CSc1ncc(-c2ccc(Cl)cc2)o1)c1ccc(Cl)cc1
→ nt | -1.3
Fc1ccc(-c2csc3ncnc(NCc4ccc5c(c4)OCO5)c23)cc1
→ 0.87 | nt
CCc1onc(C)c1C1CCCN1C(=O)c1cnn2c(C(F)(F)F)cc(-c3ccccc3)nc12 (configuration not stated)
→ 0.91 | nt
Cc1cc(NC(=O)CC2NCCN(Cc3ccccc3)C2=O)no1 (configuration not stated)
→ nt | -1.6
O=c1[nH]nc(SCc2ccc(Br)cc2)c(=O)[nH]1
→ nt | 0.9
Cc1ccsc1CN(Cc1ccco1)C(=O)c1ccc(Br)cc1
→ 0.46 | 0.56

# Other compounds
SMILES	HIV TAR-Tat	CDC25B CDK2 inh
COC(=O)c1sc2ccccc2c1S(=O)(=O)NCc1ccco1	-0.02	nt
CCC(C)(C)NS(=O)(=O)c1cc(-c2csc(C)n2)ccc1C	0.35	nt
Cc1ccc(C)c(Cn2nc(C)c3c(C)onc3c2=O)c1	0.97	nt
Cc1ccsc1CCNC(=O)CN(C)S(=O)(=O)c1ccc2c(c1)C(C)(C)C(=O)N2C	1.9	nt
O=C(c1ccc(Cl)cc1)c1cn(Cc2ccccc2)c2cc3c(cc2c1=O)OCCO3	-0.51	-1.1
O=c1oc(-c2ccco2)ns1	nt	-1.7
COc1ccc(-c2c(C)nn3c(N)c(-c4ccc(Cl)cc4)cnc23)cc1OC	0.06	-0.8
COc1ccc2c(c1OC)C(=O)O[C@@H]2[C@H]1c2c(cc3c(c2OC)OCO3)CCN1C	4.3	-1.4
O=C(NC(=O)c1cccc(=O)o1)Oc1ccccc1	nt	-1.1
Cc1cc(Nc2ccc(N3CCN(C(=O)C(C)C)CC3)c(Cl)c2)n2nc(-c3ccco3)nc2n1	1.3	-1.2
COC(=O)c1cn(C(=O)c2ccc(-c3ccccc3)cc2)c2ccccc12	nt	-2.9
COCCNC(=O)C1CCCN(c2ncnc3c2nc2n3CCCCC2)C1 (configuration not stated)	0.95	nt
O=C(Cn1c(=O)cc(O)c2ccccc21)N1CCN(c2ccccn2)CC1	0.79	nt
O=C(c1ccc(CN2C(=O)CSc3ncccc32)cc1)N1CCN(c2ncccn2)CC1	-2	nt
O=C(c1ccc2nc3ccc(Cl)cc3c(=O)n2c1)N1CCCCC1	nt	0.46
CCOC(=O)c1sc(NC(=O)c2cc(C)no2)c(C(=O)OCC)c1C	-1	-0.04
COc1ccc(NS(=O)(=O)c2ccc3c(c2)N(C)CCO3)cc1	0.83	nt
Cc1nn(-c2c(Cl)cc(C(F)(F)F)cc2Cl)c(C)c1C(=O)O	nt	-0.46
CCc1nc(SCc2cc(=O)c3cc(C)ccc3[nH]2)n[nH]1	-0.28	nt
CC(C)COc1ccc(-c2n[nH]c(=O)c(Cc3ccco3)n2)cc1	1.8	nt
CN1CCN(C2CC(=O)N(c3ccccc3)C2=O)CC1 (configuration not stated)	0	-0.16
COc1ccc(Cl)cc1NC(=O)NCCSCc1ccco1	nt	-1
CCc1nc2scc(-c3ccc(Br)cc3)c2c(=O)o1	nt	-0.75
Clc1ccc(-c2noc3ncnc(NC4CCCC4)c23)cc1	1	-0.26
O=C(Cn1cnc(S(=O)(=O)N2CCCCC2)c1)NC1CCCc2ccccc21 (configuration not stated)	0.23	nt
Nc1cc(=O)[nH]c(SCC(=O)c2ccc(O)c(O)c2)n1	nt	4.8
O=C(COc1cccc(Cl)c1)Nc1nc(-c2cccs2)ns1	0.54	-0.11
Cc1c(C(=O)N2CCCC2)c(S(=O)(=O)Nc2ccc(Cl)cn2)c(C)n1C	1.2	nt
CC(C)Cn1c(C2CC(=O)N(c3cccc(Cl)c3)C2)nc2ccccc21 (configuration not stated)	0.29	-2.3
O=c1c2c(-c3ccccc3)csc2ncn1CCCn1ccnc1	1.4	1.4

# Looked up above:
# Reading of O=C(Cn1c(=O)cc(O)c2ccccc21)N1CCN(c2ccccn2)CC1 in HIV TAR-Tat: 0.79
# Reading of CC(=O)Nc1ccc(N2C(=O)CC(Sc3nccc(C)n3)C2=O)cc1 (configuration not stated) in HIV TAR-Tat: 1.7

# Remaining list, next part
SMILES	HIV TAR-Tat	CDC25B CDK2 inh
CCOC(=O)c1c(C)[nH]c(C)c1S(=O)(=O)N1CCC(C(=O)NCc2cccs2)CC1	1.4	nt
COc1ccc(-n2nnc3c(SCC(=O)c4ccc(Cl)cc4)ncnc32)cc1	1.2	-2.6
OCc1cc(-c2ccc(Cl)c(Cl)c2)no1	nt	-1.6
COc1ccc(S(=O)(=O)N2CCc3cc4cc(C)ccc4nc32)c(OC)c1	-0.22	-1.8
Fc1ccccc1C(NCCCN1CCN(c2ccccc2)CC1)c1nnc(-c2ccccc2)o1 (configuration not stated)	-0.06	nt
Nc1nc(NCC(=O)O)nc(N2CCCCC2)c1[N+](=O)[O-]	0.94	nt
Cc1cc2[nH]c(=O)c(=O)[nH]c2cc1S(=O)(=O)Nc1ccc(Br)cc1F	1.4	nt
c1csc(-c2cn3ccsc3n2)c1	nt	-0.52
Cc1cccc2nc(-c3ccccn3)c(Nc3ccc4c(c3)OCO4)n12	-5.7	0.33
COc1ccc(Oc2nc(Oc3ccc(OC)cc3)nc(Oc3ccc(OC)cc3)n2)cc1	nt	-1.6
O=C(Nc1cc(F)ccc1F)c1cnn(-c2ccccc2)c1-n1cccc1	0.31	-0.56
Cc1ccccc1Cc1nc2cc(N)ccc2n1C	1	nt
Cc1ccc(CCP(=O)(O)CCC(=O)O)cn1	nt	0.33
O=C(Oc1ccc([N+](=O)[O-])cc1C1SCCS1)c1ccc([N+](=O)[O-])o1	nt	-0.33
COc1ccc(S(=O)(=O)N2CCN(c3c(C)n(C)c(=O)n(C)c3=O)CC2)cc1OC	0.49	nt
O=C(NC1CCCc2ccccc21)C1CCC(CNS(=O)(=O)c2cccc3nsnc23)CC1 (configuration not stated)	0.32	-1.4
CCN(CC)CCN1C(=O)c2cc3sccc3n2CC1(C)C(=O)NC1CCCCC1 (configuration not stated)	0.85	-3.2
O=C1C(=O)N(c2cccnc2)C(c2ccc(Cl)cc2)/C1=C(\O)c1ccc(Cl)cc1 (configuration not stated)	1.9	-2.1
CCOC(=O)c1c(C)oc2nc(C)nc(NCc3ccc(CN4CCCCC4CC)o3)c12 (configuration not stated)	-0.13	nt
CCOCCn1c(CN2CCN(c3ccccc3)CC2)nc2c1c(=O)n(C)c(=O)n2C	2.6	-0.81
CC(C)CCNc1nc2c(S(=O)(=O)c3ccc(Cl)cc3)nnn2c2ccsc12	-0.25	nt
O=C(Nc1cc(F)ccc1F)c1cc2c(s1)-c1ccc(Cl)cc1S(=O)(=O)C2	1.9	-0.8
Cc1cc2n(n1)C(c1cccc(Cl)c1)Nc1c(C)cccc1-2 (configuration not stated)	1.4	2.2
Cc1ccc2c(c1)CC(C)N2S(=O)(=O)c1nnc(NC(=O)c2cccs2)s1 (configuration not stated)	-1.8	0.58
CCOC(=O)N1CCN(c2nc3ccc(Cl)cc3nc2-n2nc(C)cc2C)CC1	-1.2	nt
CSCCOC(=O)c1[nH]c2c(c1C)C(=O)CC(c1ccc(N(C)C)cc1)C2 (configuration not stated)	-1.6	-1.7
O=S(=O)(NCCN1CCCC1)c1cccc2nsnc12	0.6	-0.3
O=C(NNc1ccccn1)Nc1csnc1-c1c(Cl)cccc1Cl	nt	-0.96
O=C(CCN1C(=O)c2ccccc2C1=O)Nc1ccccc1C(F)(F)F	nt	-1
